Six1-Eya2 blk – qHTS Assay for Inhibitors of the Six1/Eya2 Interaction; Homeobox protein SIX1 (Homo sapiens) + Protein phosphatase EYA2 (Homo sapiens), …; AlphaScreen GST-Six1/His-Eya2 binding, biochemical; stronger effect = lower value; control for the full effect not named in the record; activity change, % (no concentration beside the values); hit rate 0.56% among 360,000; in the data active = activity change below about -65%; inconclusive = about -30% to -65%; inactive = above about -30%; also: % is scaled to controls: 0 for no effect and ±100 for the full control effect; compound concentration not given in the record
Target sequence (O00167 whole entry, looked up): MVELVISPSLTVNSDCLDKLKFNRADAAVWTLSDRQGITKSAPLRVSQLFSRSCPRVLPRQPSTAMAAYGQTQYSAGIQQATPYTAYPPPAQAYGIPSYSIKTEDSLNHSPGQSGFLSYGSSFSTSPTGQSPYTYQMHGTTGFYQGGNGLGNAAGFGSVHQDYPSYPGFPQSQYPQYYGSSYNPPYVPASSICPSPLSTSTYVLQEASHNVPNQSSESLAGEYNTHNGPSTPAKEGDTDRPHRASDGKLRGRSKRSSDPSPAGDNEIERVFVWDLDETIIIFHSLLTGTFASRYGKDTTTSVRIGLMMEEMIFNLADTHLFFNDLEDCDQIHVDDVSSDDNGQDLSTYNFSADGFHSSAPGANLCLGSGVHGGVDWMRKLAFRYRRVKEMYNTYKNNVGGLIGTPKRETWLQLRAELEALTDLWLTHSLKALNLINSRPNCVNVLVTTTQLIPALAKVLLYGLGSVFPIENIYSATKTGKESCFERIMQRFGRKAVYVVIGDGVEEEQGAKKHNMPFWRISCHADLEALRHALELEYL
Target sequence (Q15475 whole entry, looked up): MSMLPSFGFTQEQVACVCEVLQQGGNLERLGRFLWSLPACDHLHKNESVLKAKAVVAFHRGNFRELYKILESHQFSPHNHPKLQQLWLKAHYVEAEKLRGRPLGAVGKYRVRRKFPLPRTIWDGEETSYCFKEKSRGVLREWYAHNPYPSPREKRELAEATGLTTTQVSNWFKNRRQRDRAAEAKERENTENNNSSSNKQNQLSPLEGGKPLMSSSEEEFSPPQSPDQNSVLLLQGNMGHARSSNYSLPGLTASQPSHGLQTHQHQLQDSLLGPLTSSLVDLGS
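AlphaScreen with GST-Six1 and His-Eya2 (5X mix: 250 nM and 500 nM), glutathione donor and nickel acceptor beads; buffer 50 mM Tris pH 8.0, 300 mM NaCl, 1 mM TCEP; 1 h at 37 C in the dark.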
PINK1 expr mod – A Quantitative High throughput Screen to Identify Chemical Modulators of PINK1 Expression; PINK1 immunofluorescence, high-content cytometry, 24 h; Potency, µM (titrated, usually from 76.6 µM), for the others: top-dose activation (PINK1 increase), most hits filed as activators; hit rate 0.2% among 410,000; active = well fitted activation curve with a large enough effect; inconclusive = small, poorly fitted or top-dose-only effect; inactive = flat fitted curve, though single readings scatter; cell line not stated here;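 also: potency is read from the fitted curve at half-maximal effect; % of control where 0% means no effect; nearly all actives have a fitted effect of over 65% in size; a mitochondrial uncoupler was the plate control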
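A stable cell line was treated with compounds at 5 concentrations for 24 hours, with CCCP as control. PINK1 levels and mitochondrial localization were measured by immunofluorescence with mitochondrial, cell and nuclear markers after fixation, read by laser-scanning cytometry.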
TRPML1 blocker – qHTS for Inhibitors of the Human Mucolipin Transient Receptor Potential 1 (TRPML1). Mucolipin-1 (Homo sapiens), Q9GZU1. TRPML1-inducible cells, Ca2+ dye fluorescence, FDSS; stronger effect = lower value; inhibition of EC80 agonist-evoked calcium signal. activity change, negative = inhibition, % (test concentration not listed). hit rate 0.02% among 390,000; in the data active means activity change below about -50%; inconclusive means about -30% to -50%; inactive means above about -30%;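 also: stimulus is agonist 54-4 at its EC80 concentration; % is scaled to controls: 0 for no effect and ±100 for the full control effect; compound concentration not given in the record; the text of the record puts the active cut at -80%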
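Calcium fluorescence in TRPML1-DL cells induced overnight with Tet: a 110 s read after compound pin addition, then a 110 s antagonist read after challenge with 54-4 at 4 uM final (EC80).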
D2 PAM – Beta-Arrestin HTS for Positive Allosteric Modulators of the Human D2 Dopamine Receptor: Potentiators. DiscoveRx D2 beta-arrestin cells, luminescence, 90 min; 100% = 57 uM dopamine signal. potentiation, % (concentration not given with the values). hit rate 0.23% among 360,000; active = potentiation of 50% or more; inconclusive = 30% to 50%; inactive = 30% or less;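 also: compound concentration not given in the record; tested on top of an EC20 dose of dopamine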
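PathHunter D2 cells, attached overnight at 37 deg C, received compound in DMSO plus dopamine at EC20 (50 nM final) for 90 min at 37 deg C. Beta-arrestin recruitment was read as luminescence after 1 h with detection reagent at ambient temperature.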
TRPML1 ag – qHTS for Agonists of the Human Mucolipin Transient Receptor Potential 1 (TRPML1). hit rate 0.12% among 410,000. TRPML1-expressing cells, Ca2+ dye fluorescence, FDSS; host cell line not named in the record; reference of the full effect not given here. activation, % (concentration not given with the values). Mucolipin-1 (Homo sapiens), Q9GZU1; in the data active = activation above about 50%; inconclusive = about 30% to 50%; inactive = below about 30%; also: 0% is about no effect; the text of the record puts the active cut at 80%
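Calcium fluorescence on an FDSS kinetic reader gave the read-out. Tet-induced TRPML1-DL cells were plated overnight, dye-loaded (Ca8 with quencher, 45-90 min, room temperature, dark), then read 110 s after compound addition, and again 110 s after 4uM final 54-4 (EC80).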
D2 agonist – Beta-Arrestin HTS for Positive Allosteric Modulators of the Human D2 Dopamine Receptor: Agonists; D(2) dopamine receptor (Homo sapiens), P14416; DiscoveRx PathHunter D2 beta-arrestin, luminescence, 90 min; 100% = 57 uM dopamine signal; activation, % (test concentration not listed); hit rate 0.084% among 360,000; AID 624465, 2012; in the data active = activation above about 40%; inconclusive = about 15% to 40%; inactive = below about 15%; also: compound concentration not given in the record; the text of the record calls up to 30% inactive
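DiscoveRx PathHunter D2 beta-arrestin cells (2,100/well) attached overnight, then compound-stimulated 90 min at 37 C in HBSS/10 mM HEPES/0.1% Tween-20 buffer; beta-galactosidase complementation read by luminescence after 1 h at ambient temperature. Dopamine 57 uM final (EC100) as control.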
The depositor's hits bear a star; ? = inconclusive; nt = no result given; & = joins results of further samples; [ ] = remark or other dose.

SMILES	Six1-Eya2 blk	PINK1 expr mod	TRPML1 blocker	D2 PAM	TRPML1 ag	D2 agonist
CCSc1nnc([C@@H]2CCCN2C(=O)OC(C)(C)C)o1	9	-1.7%	6	-11	0.5	-0.1
Cc1ccc2nc(N3CCOCC3)c3nncn3c2c1	1	1.8%	-4	-1	-0.6	-5.4
CN(Cc1ccccc1)S(=O)(=O)c1nnc(NC(=O)c2ccccc2Cl)s1	nt	0.1%	-1	nt	1.7	nt
C[C@@H]1ON(C)[C@H]2C[C@H]3c4[nH]c5ccc(-c6ccc7c(c6)OCO7)cc5c4CCN3C(=O)[C@@H]12	?	1.3%	23	-1	0.9	-5.6
CCNC(=S)N(Cc1cc2cccc(C)c2[nH]c1=O)C1CCCC1	-7	4.7%	44	-15	2.9	1.7
Cc1ccccc1N=C1NC(=O)/C(=C/c2cccnc2)S1	7	-0.6%	7	-1	1.2	-2.7
Cc1cc(N)n2nc(C)c(-c3ccc(Cl)cc3)c2n1	-1	-0.2%	37	0	2.2	3.1
CCOC(=O)[C@H]1[C@H]2COc3ccccc3[C@@H]2N2C(=O)CN(Cc3ccc(C)cc3)C(=O)[C@@]12C	-1	0.3%	0	-6	4.3	-4.3
CCN(C[C@H]1N[C@@](CC)(C(=O)OC)[C@H]2C(=O)N(C)C(=O)[C@@H]12)C(=O)COC	2	-0.5%	-16	-7	0.6	-1.6
CN(C)C(CNS(=O)(=O)c1ccc(F)cc1)c1cccnc1 (configuration not stated)	0	-0.2%	-1	-4	-0.5	-2.1
C[C@H]1CN([C@@H](C)CO)S(=O)(=O)c2ccc(Br)cc2O[C@@H]1CN(C)Cc1ccccc1	-8	-1.4%	nt	nt	nt	0.6
CCc1ccccc1NC(=O)C1CCN(S(=O)(=O)c2ccc(N3CCCC3=O)cc2)CC1	-14	8.1%	-8	-18	-1.2	2.1
Cc1nn(C(C)C(=O)N2CCN(c3ccc(F)cc3)CC2)c(=O)c2c1sc1ccccc12 (configuration not stated)	nt	4.5%	-1	nt	1.0	nt
COc1ccc(NS(=O)(=O)c2ccc3[nH]c4c(c3c2)CCCCCC4)cc1	nt	4.8%	13	nt	0.8	nt
O=C(NN=Cc1ccccc1O)C1CC1	?	2.4%	-28	-9	0.2	-0.4
Cc1ccc(Oc2ccc(OCC(=O)NC3CCS(=O)(=O)C3)cc2)cc1 (configuration not stated)	4	-0.5%	35	-6	0.5	-4.1
Cc1cccc(NC(=O)[C@@H]2CCCN2C(=O)OC(C)(C)C)c1	3	0.9%	17	-2	-0.7	-1.2
O=C(O)CSc1cccc2cccc(C(=O)O)c12	6	0.5%	14	-2	-0.2	-2.8
Fc1ccc(NC(=S)NCCN2CCOCC2)c(F)c1F	3	0.2%	-8	0	0.1	-1.4
O=c1c(O)c(-c2ccccc2)oc2cc(O)cc(O)c12	-11	2.3%	nt	-47	nt	-3.7
O=C(NC1CCN(S(=O)(=O)c2cccc([N+](=O)[O-])c2)CC1)C1CCCCC1	14	-0.1%	17	-4	0.5	-2.8
COc1ccc(CN(C)C(=O)CNC(=O)c2sc3ccccc3c2Cl)c(OC)c1	-2	-0.1%	-11	-7	2.1	-0.8
Cc1ccc2nc(Cl)c(CN(C(=O)c3cnccn3)C3CCCCC3)cc2c1	-2	2.9%[38.3 µM]	-7	5	3.2	2.2
Fc1ccc(-c2nc(-c3cccs3)c(-c3cccs3)[nH]2)cc1	nt	0.7%	?	nt	0.5	nt
CC1CN(C(=O)N2CCC(C(=O)NCc3ccco3)CC2)c2cc(Cl)ccc2O1 (configuration not stated)	nt	-1.2%	31	nt	-0.6	nt
Continued:
SMILES	Six1-Eya2 blk	PINK1 expr mod	TRPML1 blocker	D2 PAM	TRPML1 ag	D2 agonist
Cc1nc2scc(C)n2c(=O)c1S(=O)(=O)Nc1ccc(N2CCN(S(C)(=O)=O)CC2)cc1	-12	1.6%&-0.6%	5&-21	-1	0.2&0.0	7.3
CCc1nn2c(=O)cc(COC(=O)C3CCCCC3)nc2s1	nt	-0.1%	-4	nt	-0.8	nt
O=C(Nc1ccnc(-c2ccncc2)n1)c1ccc(F)cc1	5	-2.2%	1	-10	0.3	1.1
CSc1ncc(CN2CCC(C(=O)Nc3cccc(-c4cscn4)c3)CC2)cn1	3	2.2%	-5	-31	0.6	0.1
CCOC(=O)C1=C(O)/C(=C/c2cn(CC(=O)N3CCCC3)c3ccccc23)SC1=Nc1ccccc1	5	?	-6	0	-0.4	-8.9
CC(=O)c1cccc(S(=O)(=O)NCCC(=O)O)c1	4	-1.5%	-10	-5	0.2	0.7
Cc1cc(C)cc(OCc2ccc(C(=O)NN)o2)c1	-2	-1.4%	21	-1	0.7	3.7
O=C(O)c1ccccc1	6	0.1%	nt	-13	nt	-1.9
Cc1ccnc2nc(C(=O)OCC(=O)NC(=O)NCc3ccco3)nn12	3	-1.9%	-5	-5	0.5	5.9
Cc1ccc(N2CC(C(=O)NC3CCC(C)CC3)CC2=O)cc1 (configuration not stated)	7	-0.1%	3	-11	-0.8	-1.2
COc1ccc(-c2nc3n(c2Br)CCC3)cc1	-16	0.0%	-7	2	-0.6	-2.4
N#Cc1ccc(OCC(O)CS(=O)(=O)c2ccccc2)cc1 (configuration not stated)	6	-0.7%	6	-5	0.3	-3.7
O/N=C1/CCc2cccc3cccc1c23	-3	-6.2%[38.3 µM]	-8	-1	-0.6	-1.1
COc1ccc(S(=O)(=O)N(C)C[C@H]2Oc3ccc(NC(=O)NC(C)C)cc3C(=O)N([C@H](C)CO)C[C@@H]2C)cc1	5	1.9%	3	-6	-0.7	0.6
CC(C)[C@H](NC(=O)NCCc1ccc(F)cc1)C(=O)O	13	1.4%	17	3	-0.7	3.5
OC[C@H]1O[C@@H](O[C@@H]2[C@@H](CO)O[C@@](O)(CO)[C@H]2O)[C@H](O)[C@@H](O)[C@H]1O	0	-0.7%	-21	3	0.3	-7.8
CN(c1ccccc1)S(=O)(=O)c1cccc(NC(=O)c2cc(=O)c3ccccc3o2)c1	-7	0.7%	16	3	-0.4	10
O=C1/C(=C/c2ccccc2)SC(=S)N1CCCC(=O)N1CCCCC1CCO (configuration not stated)	-17	2.3%	-2	-20	-0.1	1.9
O=C(Cc1ccccc1)NCc1n[nH]c(=S)n1-c1ccccc1	-4	1.8%	10	-5	0.9	-0.9
O=c1c(-c2nn[nH]n2)coc2ccc(Cl)cc12	-29	-0.2%	-8	-21	-0.9	-3.4
COC(=O)c1ccc(N2Cc3ccccc3/C2=N\C(=O)Nc2ccccc2)cc1	-9	5.5%	15	-5	-0.1	-1.5
COc1ccc(NC(=O)CSCC(=O)Nc2cc(Cl)ccc2N2CCOCC2)cc1	7	3.5%	-10	-2	-0.4	-1.2
Cc1c(NC(=O)/C(C#N)=C/c2ccc(-c3cc(Cl)ccc3Cl)o2)c(=O)n(-c2ccccc2)n1C	?	3.2%	14	-4	1.9	2.8
CCC(=O)c1ccc(CCCCCC(=O)O)s1	-8	-1.1%	-15	-20	0.4	-3.5
COC(=O)c1cnn(-c2ccc(C(=O)Nc3ccc(C(C)=O)cc3)cc2)c1N	nt	0.8%	15	nt	0.1	nt
Further records:
SMILES	Six1-Eya2 blk	PINK1 expr mod	TRPML1 blocker	D2 PAM	TRPML1 ag	D2 agonist
O=C(NC(=S)Nc1ccccc1N1CCOCC1)c1cccs1	?	3.3%	4	-21	0.0	-0.4
CNC(=O)NC(=O)CSc1nnc(-c2ccc(F)cc2)n1CC1CCCO1 (configuration not stated)	5	-0.2%	-5	-10	-0.7	-3.7
CSc1ccc(C(=O)C2CCCN(C(=O)c3ccc4c(c3)OCO4)C2)cc1 (configuration not stated)	0	1.3%	-7	-5	-0.3	-0.4
Cc1ccc(Oc2ccc3c(c2)C(=O)N(c2ccc(S(=O)(=O)Nc4nccs4)cc2)C3=O)cc1	-25	8.4%[38.3 µM]	-17	24	0.9	6.8
CCCCC(=O)Nc1ccc(C(=O)N2CCN(c3ccccc3OC)CC2)cc1	-3	?	-11	2	0.8	0.1
O=C(COc1ccc([N+](=O)[O-])cc1)Nc1ccncc1	3	-1.6%	-13	-2	0.7	4.0
CCOC(=O)c1cn(-c2ccccc2CO)c2c(F)c(F)c(F)cc2c1=O	2	0.5%	35	-8	0.5	3.2
CC(C)NC(=O)/C(C#N)=C/c1cccc(NC(=O)c2ccccc2Cl)c1	8	?	-16	15	1.5	-1.2
COc1ccc2oc(C(=O)N3CCN(C/C=C/c4ccccc4)CC3)c(C)c2c1	-8	0.4%	-17	-4	1.4	-1.1
O=C(c1cc2c(s1)-c1ccccc1S(=O)(=O)C2)N1CCN(Cc2ccccc2)CC1	-11	1.8%	-9	-4	-1.0	3.1
CCC1Sc2ccc(S(=O)(=O)CCC(=O)Nc3cc(C)ccn3)cc2NC1=O (configuration not stated)	0	0.2%	-9	-3	0.4	-2.5
O=C(Nc1ccc(F)cc1)c1cccc(N2C(=O)c3ccccc3C2=O)c1	-2	-1.8%	-8	-6	0.5	0.2
C[C@@H]1CCCCO[C@@H](CN(C)S(=O)(=O)c2ccccc2)[C@@H](C)CN([C@H](C)CO)C(=O)c2cc(NS(=O)(=O)c3ccc(F)cc3)ccc2O1	-16	1.7%	-3	2	0.0	-9.9
O=[N+]([O-])c1ccc(N2CCN(S(=O)(=O)c3ccc4ccccc4c3)CC2)cc1NCc1ccco1	-4	0.4%	0	-5	-1.0	-7.2
Cc1nc(NCCN)c(C#N)c2c1COC(C)(C)C2	0	1.9%	5	-8	-0.1	-3.5
CCN1CCCC1CNC(=O)CSc1cc(=O)n(C)c2cc(Cl)ccc12 (configuration not stated)	-4	-0.7%	-2	-20	0.1	-2.5
COc1ccc(-c2nc3c4ccccc4ccn3c2Cc2ccc(C)cc2)cc1OC	-19	0.8%	nt	-6	0.5	-5.1
C=CCNC(=S)/C(=C(/[O-])c1ccc([N+](=O)[O-])cc1)[n+]1ccccc1	0	0.0%	-5	-7	0.1	4.3
Cc1ccccc1NC(=O)NCCCCc1ccccc1	-19	-0.1%	90	-14	-0.2	-4.7

Some of these compounds in order of heavy-atom count, high to low:
SMILES	Six1-Eya2 blk	PINK1 expr mod	TRPML1 blocker	D2 PAM	TRPML1 ag	D2 agonist
Cc1c(NC(=O)/C(C#N)=C/c2ccc(-c3cc(Cl)ccc3Cl)o2)c(=O)n(-c2ccccc2)n1C	?	3.2%	14	-4	1.9	2.8
CCc1ccccc1NC(=O)C1CCN(S(=O)(=O)c2ccc(N3CCCC3=O)cc2)CC1	-14	8.1%	-8	-18	-1.2	2.1
CCCCC(=O)Nc1ccc(C(=O)N2CCN(c3ccccc3OC)CC2)cc1	-3	?	-11	2	0.8	0.1
OC[C@H]1O[C@@H](O[C@@H]2[C@@H](CO)O[C@@](O)(CO)[C@H]2O)[C@H](O)[C@@H](O)[C@H]1O	0	-0.7%	-21	3	0.3	-7.8

Screening data: PubChem, National Center for Advancing Translational Sciences (NCATS)
